Source: PubChem
LANA-nucl inh: inhibitors of KSHV LANA binding to nucleosomes; FITC-LANA1-23 / chicken nucleosome fluorescence polarization; stronger effect = lower value; z-score (concentration not given with the values); hit rate 0.3% among 51,000; AID 720717;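 active means both repeat wells score below -2 in polarization z-score versus plate sample wells, excluding overly bright wells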;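 further: 100 nL library stock added to about 30 µL; numbers are from one replicate; some results filed as inactive read as strong as hits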
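Assay system: FITC-LANA peptide and chicken nucleosomes; input: 240 nM purified chicken nucleosomes (480 nM peptide binding sites), final; also added: 50 nM FITC-LANA1-23 probe; medium: TEN-BT buffer, pH 7.5; doses: pin-transferred compound, 100 nL; times: 10–45 min, room temperature; technique: fluorescence polarization; replication: duplicates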
Ab BasE inh: blocks the Acinetobacter baumannii siderophore enzyme BasE. purified BasE, fluorescence polarization binding displacement. hit rate 0.1% among 84,000. AID 485350. inhibition, % (test concentration not listed);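 active means both replicates above 25% with normal brightness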;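 further: 0% = negative plate control signal and 100% = positive plate control signal; stock transfer was 100 nL into about 30 µL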
An asterisk follows results filed as active; . = no result given.

#	Molecule	LANA-nucl inh	Ab BasE inh
1	Cn1c(CNC(=O)c2cccs2)nnc1SCc1ccccc1	.	-0.2
2	COCc1cc(C)nc(SCC(=O)N2CCOCC2)c1C#N	0.911	-2.5
3	O=C(NCc1cccs1)c1ccc(Cl)cc1	0.28	-2.1
4	O=C1CC(c2ccccc2)CC(O)=C1C=NCc1ccco1 (stereo not given)	.	-4.2
5	CCOc1ccc(-n2c(SCC(=O)NC3CCCC3)nnc2-c2ccoc2C)cc1	0.0815	1.1
6	CCN(CC)c1ccc(C=C2C(=O)c3ccccc3C2=O)c(O)c1	1.05	-18.5
7	COc1ccccc1-c1ncnn1C1=C(C#N)C2CCCCCC2S1 (stereo not given)	0.0325	-0.5
8	CN=c1scc(-c2ccc(C)c(C)c2)n1/N=C/c1ccc[nH]1	.	-6.0
9	COCCN(Cc1ccco1)C(=O)Cn1nc(Cc2cccnc2)c2ccccc2c1=O	-0.35	-1.4
10	CS(=O)(=O)Nc1ccccc1Cc1ccccc1	0.387	0.8
11	NNC(=O)CCCOc1ccc(Cl)cc1Cl	.	-1.0
12	CN(C)c1ccc(C2NN(Cc3ccccc3)C3C(=O)N(C4CCCCC4)C(=O)C23)cc1 (stereo not given)	-0.957	-2.5

(continued)
#	Molecule	LANA-nucl inh	Ab BasE inh
13	CCOC(=O)c1sc(N)c(C#N)c1COC(=O)c1ccc(S(=O)(=O)NCc2ccco2)cc1	.	-24.3
14	C/S(=N/C(=O)Nc1ccc(Cl)cc1)c1ccc(OC(=O)c2ccc(Cl)cc2)cc1 (stereo not given)	.	3.7
15	O=C1CC(N(O)c2ccccc2)C(=O)N1c1ccc(N2CCOCC2)cc1 (stereo not given)	.	-3.0
16	O=C(c1cc(-c2ccccc2)c(N2CCOCC2)s1)N1CCC2(CC1)OCCO2	0.0785	5.0
17	CN(C)C(=O)CNC(=O)c1ccc(S(=O)(=O)N(C)C)cc1	.	0.7
18	Nc1c2c(nn1-c1ccccc1)Oc1ccc(Cl)cc1C2	0.943	1.7
19	Cc1ccc(NC(=O)CN(C)C(=O)c2ccccn2)cc1	.	-2.2
20	C/C(=N\N1CCN(C)CC1)c1ccc(OC(F)F)cc1	.	-0.4
21	COc1ccc(/C=C2\C(=O)N(c3ccccc3)N=C2C)cc1	0.443	-0.1
22	Cc1cn2c(=O)c(C(=O)N3CCC(CCCC4CCN(C(=O)c5cnc6sc(C)cn6c5=O)CC4)CC3)cnc2s1	0.13	-2.3
23	CC(NCc1cccs1)c1ccccc1 (stereo not given)	0.163	-0.4
24	O=C(O)COc1ccc2occ(C(=O)c3ccccc3)c2c1	-0.15	2.2

Of the compounds above, 7 have a carbonyl joined to an NH by a bond outside any ring.
#	Molecule	LANA-nucl inh	Ab BasE inh
1	Cn1c(CNC(=O)c2cccs2)nnc1SCc1ccccc1	.	-0.2
3	O=C(NCc1cccs1)c1ccc(Cl)cc1	0.28	-2.1
5	CCOc1ccc(-n2c(SCC(=O)NC3CCCC3)nnc2-c2ccoc2C)cc1	0.0815	1.1
11	NNC(=O)CCCOc1ccc(Cl)cc1Cl	.	-1.0
14	C/S(=N/C(=O)Nc1ccc(Cl)cc1)c1ccc(OC(=O)c2ccc(Cl)cc2)cc1 (stereo not given)	.	3.7
17	CN(C)C(=O)CNC(=O)c1ccc(S(=O)(=O)N(C)C)cc1	.	0.7
19	Cc1ccc(NC(=O)CN(C)C(=O)c2ccccn2)cc1	.	-2.2

Next compounds:
#	Molecule	LANA-nucl inh	Ab BasE inh
25	CN=C(Nc1ccccc1OC)c1ccccc1	.	2.7
26	CCCCC(=O)Nc1ccc(C(=O)Nc2cccnc2)cc1	-1.1	3.8
27	CCn1c(SCCOc2ccccc2)nnc1-c1ccco1	.	16.7
28	S=c1[nH]nc(-c2cccs2)n1C1CCc2ccccc21 (stereo not given)	0.503	2.6
29	O=C1Nc2ccccc2S/C1=C\C(=O)N1CCC2(CC1)OCCO2	0.82	-5.6
30	O=C(Nc1cc2ccccc2s1)NC1CCN(Cc2ccccc2)CC1	.	-4.1
31	O=C1Cc2cc(NS(=O)(=O)c3ccccc3)cc3c2N1CCC3	-0.775	2.5
32	CC1CN(c2ccc(N)cc2)CC(C)O1 (stereo not given)	0.638	4.7
33	O=C1/C(=C/c2ccccc2)Sc2ccccc21	0.223	0.4
34	CC1=CCC2C(=O)N(c3ccc(S(N)(=O)=O)cc3)C(=O)C2C1 (stereo not given)	0.473	1.1
35	CC(C)c1nn2c(=O)cc(COC(=O)c3ccccc3NC(=O)c3ccco3)nc2s1	-1.18	-0.7
36	CC1C(=O)NN=C1C(=O)N/N=C\c1ccc(O)cc1O (stereo not given)	-0.0265	8.3

The listing continues:
#	Molecule	LANA-nucl inh	Ab BasE inh
37	CN(c1cccc(NC(=O)CN(c2ccccc2)S(C)(=O)=O)c1)S(C)(=O)=O	.	-0.3
38	COc1ccc(CCCc2nnc(SC(C)C(=O)Nc3nccs3)n2C)cc1 (stereo not given)	-0.0525	-1.4
39	C/C(=N\NC(=O)c1cc(Br)ccc1O)c1ccccn1	0.8	7.9
40	CCc1noc(C)c1C(=O)OCC(=O)Nc1sc(C)c(C)c1C(=O)OC	.	-0.2
41	COc1cc2[nH]c(=S)n(N(C(C)=O)C(C)=O)c(=O)c2cc1OC	1.35	-3.3
42	O=C(COc1ccc2oc(-c3ccco3)cc(=O)c2c1)NC1CCCCC1	0.499	-0.5
43	CCOC(=O)c1cnc(N2CCCCC2)nc1C1CCN(C(=O)OC(C)(C)C)CC1	0.37	3.6
44	CNc1c(NC(=O)Nc2cc(C)cc(C)c2)c(=O)oc2ccccc12	0.97	0.4
45	NC(=O)c1oc2ccccc2c1NC(=O)CSc1ccc(F)cc1	0.277	0.6
46	O=C(/C=C/c1cccs1)OCC(=O)N1CCN(C(=O)c2ccco2)CC1	.	2.3
47	CCc1cccc2c(C3=Nn4cnnc4SC3c3ccccc3)c[nH]c12 (stereo not given)	.	-1.6
48	CN1CCc2ccccc2C1Cc1ccccc1NS(=O)(=O)c1cccc(C(F)(F)F)c1 (stereo not given)	2.44	.

Further compounds:
#	Molecule	LANA-nucl inh	Ab BasE inh
49	CC(C)Nc1nc(NC(N)=O)nc(NC(C)C)n1	1.99	-2.8
50	CCN(CC)c1ccc(C2C(C#N)=C(N)N(c3ccccc3Cl)C3=C2C(=O)CCC3)cc1 (stereo not given)	0.572	-1.9
51	Nc1ccc(-c2nc3cccnc3s2)cc1	-0.778	1.7
52	COc1ccc(/C=C2\Oc3ccccc3N(CC(=O)N3CCC(C(N)=O)CC3)C2=O)cc1Br	0.503	-3.2
53	Cn1cccc1/C=C1\CC(C(C)(C)C)C/C(=C\c2cccn2C)C1=O (stereo not given)	1.29	-14.7
54	CC(C)CSc1n[nH]c(N)n1	-0.887	1.9
55	N#Cc1cccc(NC(=O)NCC2CCCC(CNC(=O)Nc3cccc(C#N)c3)C2)c1 (stereo not given)	.	1.1
56	O=C1N(Cc2ccccc2F)c2ccccc2C12OCCS2 (stereo not given)	2.25	-2.8
57	C=CCn1c(Cc2ccc(O)c(Cl)c2)n[nH]c1=S	0.453	1.9
58	CCOC(=O)N1CCC(N=C2NS(=O)(=O)C(c3ccc(C)cc3)=C2C)CC1	-0.623	3.6
59	CCOC(=O)c1c(-c2cccs2)csc1NC(=O)CN1CC(C)OC(C)C1 (stereo not given)	.	-2.2
60	CCN(CC)S(=O)(=O)c1ccc2nc(CSc3n[nH]c(N)n3)[nH]c2c1	.	0.7

(more compounds)
#	Molecule	LANA-nucl inh	Ab BasE inh
61	COc1ccc(-c2nn(-c3ccccc3)cc2C(=O)N(C)C)cc1OC	.	-4.0
62	O=C(O)c1ccc(NN=C2CCCCCC2)cc1	.	2.8
63	NS(=O)(=O)c1ccc(C(=O)OCc2ccccc2)cc1	0.319	0.6
64	OCc1sc2ccccc2c1Cl	.	2.0
65	NC(=O)c1ccccc1NC(=O)Nc1ccccc1	0.0555	-0.1
66	CC(=O)Nc1ccc(NC(=O)c2ccc(-c3cccc(C(F)(F)F)c3)o2)cc1	-1.47	1.8
67	Cc1cc(C)nc(Nc2n[nH]c(C)n2)n1	-1.54	0.2
68	COCCn1cc(C(=O)NCCCN2CCC(C)CC2)c2c3ccccc3n(C)c2c1=O	-0.832	-1.0
69	Cc1cc2cc3c(cc2nc1SCC(=O)N1CCCC1)OCCO3	0.266	4.1
70	CC(=O)N=C1SC2CS(=O)(=O)CC2N1Cc1ccccc1Cl (stereo not given)	-1.09	0.8
71	COc1ccc(N2C(=O)CSC(c3ccccc3)C2=O)cc1 (stereo not given)	-1.11	.
72	N#CC1(Nc2ccccc2Cl)C(=O)Nc2ccccc21 (stereo not given)	-0.28	-1.4

Continued:
#	Molecule	LANA-nucl inh	Ab BasE inh
73	N#CCCN(Cc1ccccc1)C(=S)Nc1ccccc1	0.376	1.2
74	COc1ccc(-c2csc(-c3c(C)noc3N(C(C)=O)C(C)=O)n2)cc1	.	3.3
75	COc1ccc(N2CCN(/C(=N/S(=O)(=O)c3ccccc3)Nc3nc(C)cc(C)n3)CC2)cc1	-0.698	3.6
76	O=C(O)C1C2CC3CC(C2)CC1C3 (stereo not given)	-0.804	1.4
77	O=C(NC1CCN(C(=O)c2c(Cl)cccc2Cl)CC1)C1CCCCC1	.	0.0
78	CC(=O)Nc1cccc(/C(C)=N/NC(=S)NCC2CCCO2)c1 (stereo not given)	.	-0.4
79	COc1cc(/C=N/NS(=O)(=O)c2cc(C)ccc2C)cc(OC)c1O	.	1.4
80	c1cc(CNc2ccc3c(c2)CCC3)ccn1	-1.41	17.0
81	COc1cc(NC(=O)CN2CCN(C3c4ccccc4-c4ccccc43)CC2)cc(OC)c1	-0.0775	-0.2
82	Cc1cc(C)cc(OCc2nc3cc(S(=O)(=O)N4CCOCC4)ccc3n2CC2CCCO2)c1 (stereo not given)	.	0.8
83	CCCn1cnc2c1c(=O)n(C)c(=O)n2C	0.837	-1.7
84	CCCn1c(SCC(=O)N2c3ccccc3Sc3ccccc32)nc2ccccc21	.	1.3

(list continues)
#	Molecule	LANA-nucl inh	Ab BasE inh
85	CC(=O)OC[C@H]1O[C@@H](n2ccc(=O)[nH]c2=S)C(OC(C)=O)C1OC(C)=O (stereo not given in full)	-1.41	0.2
86	CS(=O)(=O)N(CC(=O)NC12CC3CC(CC(C3)C1)C2)c1ccc2c(c1)OCO2	0.544	0.1
87	C=CCN(CC=C)C(=O)CSc1nc(-c2ccccc2)cn1N	.	1.8
88	N#CCCn1c(=O)[nH]c(=O)n(CCC#N)c1=O	-1.12	0.5
89	COC(=O)CCc1ccc(/C=C/C(=O)O)o1	.	-0.2
90	COc1ccc(-c2nonc2NC(=O)C(C)C)cc1	0.792	-0.2
91	COc1ccc2c(c1)CC/C(=C\c1cccn1C)C2=O	0.319	0.3
92	CC1=NN(c2ccccc2)C(=O)/C1=C\c1ccc(N(C)C)cc1	0.64	0.1
93	O=C1NC(=O)N(c2ccccc2F)C(=O)/C1=C/c1cn(CC(=O)N2CCCC2)c2ccccc12	.	0.4
94	CC(N=C1NS(=O)(=O)c2ccccc21)C(=O)O (stereo not given)	.	0.6
95	CC1(C)CC(=O)C(C(=O)/C=C/c2ccco2)C(=O)C1	0.003	0.9
96	O=C(Nc1ccccn1)C1c2ccccc2Oc2ccccc21	0.328	1.2

Following part:
#	Molecule	LANA-nucl inh	Ab BasE inh
97	Cc1ccc(Nc2nc(C(=O)N3CCC(C)CC3)cs2)cc1	0.012	1.7
98	COc1ccc(-n2cc(C(=O)Nc3cc(OC)cc(OC)c3)nn2)cc1	0.846	1.7
99	CCn1c(CCC(=O)Nc2cc(OC)cc(OC)c2)nc2cc(S(=O)(=O)N(C)C)ccc21	.	0.2
100	COc1ccc(CN(Cc2cccs2)C(=O)Cc2cccs2)cc1OC	.	-0.8
101	Cc1nc2ccccc2c(=O)n1/N=C/c1ccc(Cl)c(Cl)c1	.	0.8
102	N#Cc1ccccc1CSc1nnc(-c2cccs2)n1Cc1ccccc1	.	0.5
103	Cc1ccc(N2C(=O)CC(N3CCc4ccccc43)C2=O)cc1Cl (stereo not given)	-0.655	0.7
104	NC(=O)Cn1nnnc1-c1ccccc1N	-0.408	1.1
105	O=C(Nc1ccccc1)c1ccccc1OCc1nnc(-c2cccs2)o1	.	-0.5
106	Cc1nc2[nH]c(=O)[nH]c(=O)c2s1	0.625	-3.2
107	NC(=O)c1oc2ccccc2c1NC(=O)CS(=O)(=O)c1ccccc1	0.349	1.6
108	Cc1cc(C(=O)CSc2nnc(-c3sc4ccccc4c3Cl)o2)c(C)n1C1CC1	.	4.4

Next section:
#	Molecule	LANA-nucl inh	Ab BasE inh
109	CC(=O)Nc1ccc(NC(=O)Cc2ccccc2)cc1	-0.297	3.0
110	COc1cccc(C(=O)CN2C3=NCCN3c3ccccc32)c1	-0.101	-6.2
111	Cc1ccc(NC(=O)C(c2ccccc2)N(C)C)cc1Cl (stereo not given)	.	0.7
112	O=C(Nc1ccc(F)cc1F)c1cnccn1	.	1.3
113	COc1cccc(-c2nnc(SCC(=O)N3CC(C)OC(C)C3)n2C)c1 (stereo not given)	.	0.2
114	Cc1cccc2c(=O)n(CCNCc3ccccc3)c(C)nc12	.	-0.9
115	CC1=C(C#N)c2nc(N)c(C#N)c(C)c2/C1=C\C=C\c1ccccc1	1.8	-4.7
116	O=C(CNc1ccc(F)cc1F)NC(=O)NCc1ccco1	.	-15.4
117	O=C(OCC(=O)C12CC3CC(CC(C3)C1)C2)c1ccc(Br)o1	.	1.2
118	O=C(CCc1nc2ccccc2s1)N1CCN(c2ccccn2)CC1	.	-1.0
119	COc1ccc(S(=O)(=O)N(C)CC(=O)O)cc1	0.189	7.1

Part of the list above in a different format.
Order of results – LANA-nucl inh, Ab BasE inh
[109] CC(=O)Nc1ccc(NC(=O)Cc2ccccc2)cc1
 : -0.297, 3.0
[113] COc1cccc(-c2nnc(SCC(=O)N3CC(C)OC(C)C3)n2C)c1 (stereo not given)
 : ., 0.2
[116] O=C(CNc1ccc(F)cc1F)NC(=O)NCc1ccco1
 : ., -15.4

Not all compounds are listed; rates above refer to the full screens.
